# D2 potentiator – human D2 receptor positive allosteric modulation. P14416. DiscoveRx D2 beta-arrestin cells, luminescence, 90 min; 100% = 57 uM dopamine signal. potentiation, % (concentration not given with the values). 0.23% of 360,000 active. AID 624464; active = potentiation of 50% or more; inconclusive = 30% to 50%; inactive = 30% or less;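 also: compound concentration not given in the record; tested on top of an EC20 dose of dopamine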
# Target sequence (P14416 whole entry, looked up): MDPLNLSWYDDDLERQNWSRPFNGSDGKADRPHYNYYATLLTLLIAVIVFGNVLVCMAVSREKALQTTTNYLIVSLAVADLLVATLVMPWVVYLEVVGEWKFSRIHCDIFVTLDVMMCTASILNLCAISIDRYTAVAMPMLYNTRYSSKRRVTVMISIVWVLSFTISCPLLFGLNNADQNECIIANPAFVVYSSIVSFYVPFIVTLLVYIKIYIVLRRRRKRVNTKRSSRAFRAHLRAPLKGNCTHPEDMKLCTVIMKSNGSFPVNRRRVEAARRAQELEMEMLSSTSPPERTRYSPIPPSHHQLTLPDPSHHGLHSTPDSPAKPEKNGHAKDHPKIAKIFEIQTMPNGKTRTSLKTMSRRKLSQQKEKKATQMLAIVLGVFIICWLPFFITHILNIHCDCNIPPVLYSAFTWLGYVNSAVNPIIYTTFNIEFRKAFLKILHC
#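 PathHunter D2 cells, attached overnight at 37 deg C, received compound in DMSO plus dopamine at EC20 (50 nM final) for 90 min at 37 deg C. Beta-arrestin recruitment was read as luminescence after 1 h with detection reagent at ambient temperature.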
# Six1-Eya2 blk – Six1/Eya2 interaction inhibition; activity change, % (no concentration beside the values); 0.56% of 360,000 active; Q15475+O00167; AID 651725; AlphaScreen GST-Six1/His-Eya2 binding, biochemical; active compounds read low; control for the full effect not named in the record; in the data active = activity change below about -65%; inconclusive = about -30% to -65%; inactive = above about -30%; also: % is scaled to controls: 0 for no effect and ±100 for the full control effect
#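 Homogeneous AlphaScreen proximity assay pairing GST-Six1 with His-tagged Eya2 (added as 5X mix: 250 nM and 500 nM) in 50 mM Tris pH 8.0, 300 mM NaCl, 1 mM TCEP. Glutathione donor and nickel acceptor beads; 1 h, 37 °C, dark.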
# CtBP-E1A blk – CtBP/E1A binding inhibition. AlphaScreen GST-E1A/His-CtBP binding, 1536-well; active compounds read low; control for the full effect not named in the record. 0.49% of 340,000 active. activity change, % (concentration not given with the values); in the data active means activity change below about -65%; inconclusive means about -30% to -65%; inactive means above about -30%; also: % is scaled to controls: 0 for no effect and ±100 for the full control effect
#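 Homogeneous bead-based format: GST-tagged E1A captured on glutathione donor beads, His-tagged CtBP on nickel acceptor beads; compounds precede bead addition by 2 h at 37 °C.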
# D2 agonist – activates the human D2 dopamine receptor; P14416; DiscoveRx PathHunter D2 beta-arrestin, luminescence, 90 min; 100% = 57 uM dopamine signal; activation, % (test concentration not listed); 0.084% of 360,000 active; in the data active = activation above about 40%; inconclusive = about 15% to 40%; inactive = below about 15%; also: compound concentration not given in the record; the text of the record calls up to 30% inactive
#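 Agonist mode: compounds alone added to overnight-plated D2 PathHunter cells for 90 min at 37 C, with 57 uM final dopamine (EC100) defining full response. Beta-arrestin recruitment detected by chemiluminescent reagent, read after 1 h at ambient temperature.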
# gsp agonist – gsp mutant agonism. gsp mutant cells, cAMP HTRF, 30 min; control for the full effect not named in the record. Potency, µM (doses to about 76.9 µM), for the others: top-dose activation (cAMP increase), actives largely listed as activators. 0.13% of 340,000 active. AID 624287; active = well fitted activation curve with a large enough effect; inconclusive = small, poorly fitted or top-dose-only effect, or another doubt; inactive = no such curve, though single readings can be large or run the other way; cell line not stated here;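 also: phosphodiesterase inhibitor Ro 20-1724 added with compounds to block cAMP breakdown; potency is read from the fitted curve at half-maximal effect; nearly all actives have a fitted effect of over 60% in size; about a fifth of the inactives were tested at one dose only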
#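 Cells in DMEM/10% FBS with G418 were pretreated with compounds in DMSO plus […] (300 uM stock) for 30 min at 37C. cAMP was measured by HTRF (cAMP-d2 plus anti-cAMP antibody-K) after 30 min at room temperature.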
# gsp antagonist – gsp mutant antagonism; gsp-mutant cells, cAMP HTRF, 30 min; control for the full effect not named in the record; Potency, µM (titrated, usually from 76.9 µM), inactives show at the top dose activity change, negative = inhibition, hits mostly inhibitors; 0.4% of 340,000 active; AID 624288; active = falling curve of any shape with a large fitted effect; inconclusive = falling curve, mostly with a smaller effect; inactive = flat or rising curve; cell line not stated here;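 also: intracellular cAMP measured with PDE inhibitor Ro 20-1724 present during compound exposure; potency is read from the fitted curve at half-maximal effect; % is scaled to controls: 0 for no effect and ±100 for the full control effect; nearly all actives have a fitted effect of over 65% in size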
#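 G418-selected cells were plated in DMEM/10% FBS for 16-24 h at 37C, then treated with compounds plus the PDE inhibitor […] (300 uM solution added) for 30 min at 37C. Intracellular cAMP was measured by HTRF after 30 min lysis at room temperature.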
# Active calls of the source: *; ? = inconclusive; . = not tested or not shown; & = joins results of further samples; [ ] = dose if it differs, or a comment.
Molecule	gsp agonist	gsp antagonist	D2 agonist	CtBP-E1A blk	Six1-Eya2 blk	D2 potentiator
COc1cccc(CNC(=O)c2ccc(S(=O)(=O)N3CCCCC3)cc2)c1	-32.6%[inhibitor]	.	1.9	-2.3	-10.5	-2.5
O=C(CSc1ccccc1)Nc1cccnc1	-14.5%	3.4%	-2.7	-0.1	1.7	-5.2
Cc1ccc(C(=O)NCC(=O)NC23CC4CC(CC(C4)C2)C3)cc1	5.5%	4.3%	-5.2	-12.2	-0.4	-9.2
CC(C)Oc1ccc(C2CC(=O)N(c3cccc(Br)c3)C2=O)cc1 (configuration not stated)	-3.8%	-21.4%	1.3	11.2	10.5	-2.5
COc1cc(OC)c(C2=NOC(C(=O)O)C2)cc1Cl (configuration not stated)	-5.7%	-1.1%	0.4	54.5	12.0	-14.8
CS(=O)(=O)N(Cc1ccccc1)c1ccc(C(=O)Nc2ccccc2Sc2ccccc2)cc1	15.4%[15.4 µM]	5.9%	-2.2	-3.9	3.0	-5.4
c1ccc(CSc2ccc(-c3ccc4c(c3)OCO4)nn2)cc1	-20.5%	9.5%	0.4	-7.5	5.5	-6.8
CC(Oc1ccccc1F)C(=O)NNC(=O)CCNC(=O)c1ccccc1Cl (configuration not stated)	-16.5%	4.8%	-5.5	29.8	-1.7	-13.3
O=C1CC(=O)Nc2cc(S(=O)(=O)N3CCN(c4cccc(C(F)(F)F)c4)CC3)ccc2N1	18.1%	12.5%	0.8	-2.1	6.6	-6.2
CCCS(=O)(=O)NC(=O)C1(C)CCN(C(=O)c2cc(C)on2)C1 (configuration not stated)	.	.	5.8	3.7	9.1	-4.1
CCOc1ccccc1NC(=S)N1CCC(NC(=O)c2ccco2)CC1	9.8%[15.4 µM]	-58.4%	2.8	14.0	6.7	8.4
Cc1ccccc1OCC(=O)NNC(=O)C1CC(=O)N(c2ccc3c(c2)OCCO3)C1 (configuration not stated)	-2.4%	10.4%	0.4	0.0	-0.9	-3.1
CN(C)S(=O)(=O)c1cc(NC(=O)CN2CCN(c3ccccc3)CC2)ccc1Cl	-32.4%	1.2%	?	-9.9	-4.4	14.9
Cc1cc(Nc2ccccc2)nn1C(=O)c1ccc([N+](=O)[O-])cc1	17.3%	-15.3%	3.6	-16.3	-26.5	55.7*
O=C(COC(=O)c1cccc(Br)c1)NC1CCCCCCC1	-10.2%	.	-5.9	5.8	9.0	1.9
COc1cc2[nH]c(C(=O)N3CCN(c4ccc(F)cc4)CC3)cc2c(OC)c1OC	-0.3%[15.4 µM]	-14.0%	-2.9	-12.3	-20.9	-5.3
O=C(Nc1ccccc1N1CCOCC1)c1ccc(Cl)c(S(=O)(=O)N2CCCC2)c1	?	-17.2%	0.1	.	-0.7	5.4
CC1(C(=O)NS(=O)(=O)c2ccc(Cl)cc2)CCN1C(=O)CC1CCCC1 (configuration not stated)	.	.	-1.6	2.2	4.7	-8.3
C=CCN1C(=O)S/C(=C\c2ccc(N3CCOCC3)cc2C)C1=O	18.6%	-10.9%	1.6	3.0	2.6	9.5
Cc1cc(Nc2ccc3c(c2)OCCO3)n2nc(C)nc2n1	-6.2%	10.4%	-1.9	-18.9	-7.8	2.4
Cc1cc(=O)oc2cc(OCC(=O)Nc3c(C)n(C)n(-c4ccccc4)c3=O)c(Cl)cc12	?	5.0%	-2.6	2.8	-2.7	11.9
c1ccc(CC2CCN(Cc3ccccn3)CC2)cc1	11.8%	3.8%	-4.0	9.2	-1.6	-20.4
C/C(=N\NC(=O)CNC(=O)c1ccc(Br)cc1)c1ccco1	-75.8%[inhibitor]	4.4%	-5.2	2.5	0.9	-15.3
O=C(CNC(=O)c1cccc(OC(F)F)c1)OCc1cc(=O)n2cc(Br)ccc2n1	?	9.5%	-3.3	-1.9	-2.5	8.4
CCn1cc(C(=O)N[C@@H](C)C(=O)NCCCO)c(=O)c2cc3c(cc21)OCO3	?	8.2%	1.1	-4.0	6.4	-4.7

# Structures from the list above that have an aryl methoxy group (3):
Molecule	gsp agonist	gsp antagonist	D2 agonist	CtBP-E1A blk	Six1-Eya2 blk	D2 potentiator
COc1cccc(CNC(=O)c2ccc(S(=O)(=O)N3CCCCC3)cc2)c1	-32.6%[inhibitor]	.	1.9	-2.3	-10.5	-2.5
COc1cc(OC)c(C2=NOC(C(=O)O)C2)cc1Cl (configuration not stated)	-5.7%	-1.1%	0.4	54.5	12.0	-14.8
COc1cc2[nH]c(C(=O)N3CCN(c4ccc(F)cc4)CC3)cc2c(OC)c1OC	-0.3%[15.4 µM]	-14.0%	-2.9	-12.3	-20.9	-5.3

# Remaining list, next part:
Molecule	gsp agonist	gsp antagonist	D2 agonist	CtBP-E1A blk	Six1-Eya2 blk	D2 potentiator
Cc1nc(CNC(=O)CC2C(=O)NCCN2Cc2cccc(Oc3ccccc3)c2)cs1 (configuration not stated)	-125.6%[inhibitor]	0.4%	-2.0	.	-1.2	-6.9
COC(=O)c1c(NC(=O)C(=O)N2CCCC2)sc2c1CC(C)(C)OC2	-10.3%	-8.4%	-3.1	11.8	2.8	-2.9
Cc1cccc(N2CCN(c3nc(C)cc(C)c3C#N)CC2C)c1 (configuration not stated)	?	-2.2%	0.3	-2.1	-11.1	2.0
C#CCNC(=O)C1=C[C@@H](C(C)(C)C)C[C@@H](OCc2ccc(CO)cc2)O1	.	1.3%	2.7	7.3	4.7	-1.7
O=C(Nc1cccc(-c2nnc(-c3ccccc3)o2)c1)C1CCCCC1	3.2%	-17.9%	-2.5	8.9	-1.9	1.0
O=C(NCCNCc1cccs1)c1ccccc1F	0.3%[15.4 µM]	15.4%	1.4	2.6	4.0	-20.8
Cc1ccc(N=C2NC(=O)CS2)cc1	0.4%	4.9%	-1.4	-1.9	-0.8	9.0
CCOC(=O)c1ccccc1NS(=O)(=O)c1ccc(S(=O)(=O)N2CCCC2)cc1	-5.3%	-0.8%	-1.8	-7.2	-10.6	-6.6
COc1ccc(C(=O)NOCc2ccccc2)cc1	0.5%	7.3%	-0.9	3.5	5.9	-16.7
O=C(O)C(=O)/C(=C\c1ccsc1)c1ccc2ccccc2n1	?	-0.7%	-2.7	0.0	-9.6	-0.8
CCOc1[nH]n(-c2ccc(Cl)cc2)c(=O)c1C=NCC(=O)OC	-41.9%[inhibitor]	-10.1%	1.9	.	-10.3	-2.1
CCOCC(=O)Nc1nc2c(s1)C(=O)CC(C)(C)C2	9.9%	-1.0%	-4.4	-13.4	7.6	-6.4
Cc1cccc(NC(=O)C2CCN(S(=O)(=O)c3cccc4nsnc34)CC2)n1	21.7%	-1.3%	-2.0	-2.9	3.0	2.8
CN(C)c1nc(-c2ccccc2)c2cc(Cl)ccc2n1	6.9%	-10.4%	0.6	.	23.1	-7.4
Cc1ccc(-c2nc3cccnc3s2)cc1NS(=O)(=O)c1cccs1	?	-19.1%	-5.8	-10.8	-2.9	-15.1
Cc1ccnc(SCC(=O)c2cccs2)n1	10.0%	3.1%	-0.2	0.0	-4.5	-1.3
CCC(C)n1c(SCC(=O)NC2CC2)nc2ccccc2c1=O (configuration not stated)	-2.8%	.	-0.7	-17.7	-2.6	-3.4
CCn1c(=O)c(C(=O)NCc2ccc(OC)c(OC)c2)c(O)c2ccccc21	5.6%	10.2%	-1.8	3.4	-4.4	2.2
N#C/C(C(=O)N1CCOCC1)=C1/SC(Cc2ccccc2)C(=O)N1c1ccccc1 (configuration not stated)	30.3%	1.9%	-1.7	7.1	10.1	-2.4
CCCc1cc(C(=O)Nc2cccc(Cl)c2)no1	?	3.4%	-6.1	10.0	3.9	-15.7
O=C1CC2(CCN(S(=O)(=O)c3ccccc3F)CC2)Oc2ccccc21	16.6%[15.4 µM]	-18.3%	1.1	-1.8	-3.7	-13.7
COc1ccc(C(=O)NC2CCSc3ccccc32)cc1F (configuration not stated)	-3.7%	4.0%	4.5	-0.8	-4.3	-2.4
COc1cc(C(=O)OC(C)CN2CCOCC2)cc(OC)c1OC (configuration not stated)	2.3%&-7.2%	1.7%&2.8%	-0.5&-3.3	9.4	5.3&-0.9	-13.1&-14.3
Cc1cc(NC(=O)CCC(=O)N(Cc2ccco2)C(C(=O)NC2CCCC2)c2ccccc2)no1 (configuration not stated)	29.5%	4.4%	-3.2	3.5	7.8	-5.6
CS(=O)(=O)c1ccc(Cl)c(NC(=O)CN2CCCC2c2ccc3c(c2)OCCCO3)c1 (configuration not stated)	-31.5%[inhibitor]	-15.5%	0.9	.	-5.4	-21.1
O=C(Nc1ccc(Br)cc1F)C1CCCO1 (configuration not stated)	-7.8%	16.1%	-3.9	8.0	12.1	-9.2
CN1CCN(c2ccc(S(=O)(=O)N3CCOCC3)cc2NC(=O)CSCc2ccccc2)CC1	-4.7%	2.0%	-3.8	-5.5	-0.5	-4.0
Cc1ccc(OCCCN2CCOCC2)cc1	-62.9%[inhibitor]	6.6%	-4.3	-10.1	1.9	-21.9
Cc1nc(CC(=O)c2c(C)cc(O)cc2O)cs1	-43.8%[inhibitor]	-5.2%	-1.3	-11.3	-8.1	-12.0
Cc1c(C(=O)NC2CCCc3ccccc32)oc2ccccc12 (configuration not stated)	-40.4%[inhibitor]	-24.9%	-1.1	6.3	5.0	-17.6
COc1ccccc1OCC(=O)NCCNC(=O)COc1ccccc1OC	-43.5%[inhibitor]	-3.3%	-0.7	-12.3	-1.5	0.0
COc1cc(CN2C[C@@H](CO)O[C@@H](n3cnc4c(NCC(C)C)ncnc43)C2)cc(OC)c1OC	.	.	6.0	1.2	-2.1	-4.3
CC(C)(C)C1CCC(=NNC(=O)c2cc3c(s2)CCCC3)CC1 (configuration not stated)	-35.5%	12.2%	-0.5	21.8	13.0	-17.8
COCCCNC(=O)Nc1ccc(F)cc1F	3.5%	5.2%	1.0	4.8	5.3	3.4
COc1cc(/C=C2\SC(=S)N(NC(=O)c3cccnc3)C2=O)ccc1O	29.8%	-14.9%	-9.4	.	?	-22.0
Cc1ccc(NC(=O)Cc2nnc(N)s2)cc1	22.0%	-4.8%	0.3	0.2	4.2	-4.2
CCN(CCCNC(=O)CNC(=O)c1nn(-c2ccc(OC)cc2)c(=O)c2ccccc12)c1cccc(C)c1	?	-19.0%	-1.0	-22.9	-26.8	-0.7
COc1ccc(O)c(-c2cc(-c3cccc(Br)c3)n[nH]2)c1	-22.5%	-19.0%	2.3	0.8	-2.9	-14.2
CCN(CC)S(=O)(=O)c1cc(C(=O)OCC(=O)c2ccc3c(c2)NC(=O)CO3)ccc1F	-49.0%[inhibitor]	?	-0.1	-3.3	-3.3	1.9
Cc1ccc(S(=O)(=O)N2CCC(C(=O)N3CCN(Cc4ccccc4)CC3)CC2)cc1	5.6%	-10.0%	1.5	-3.1	2.3	-4.3

# Screening results from PubChem BioAssay.
